Sa helicase inh = S. aureus DNA helicase inhibition; purified S. aureus helicase, fluorescence unwinding assay; about half of the hits fall short of the stated cut; inhibition, %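 (tested at about 80 µM)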; 120,000 tested, 0.05% active;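 active = both duplicates at 50% or more, or one of them with a favoured structure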;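 note: 0% = mean of negative control wells and 100% = mean of positive control wells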
MgrA DNA FP = S. aureus MgrA-DNA binding modulation. fluorescence polarization. inhibition, %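 (about 10 µg/mL by stock and volumes)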. 84,000 tested, 0.13% active. AID 602314;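 active = above 50% in either of two replicates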;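 note: 0% = protein plus DNA without compound and 100% = DNA alone without protein; higher means less MgrA bound to DNA so lower polarization; one replicate is shown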
* hit, by the source's call; · = not tested or not shown; & = joins results of further samples.

The opening 3 compounds (preview)
SMILES	Sa helicase inh	MgrA DNA FP
CN(C)C=Nc1ccc(S(=O)(=O)c2ccc(N=CN(C)C)cc2)cc1	-14	·
CC(C)(C)NS(=O)(=O)c1ccc(NC(=O)c2ccc(Br)o2)cc1	7	-0.7
CN=c1scc(-c2ccc3c(c2)NC(=O)CO3)n1C	2	·

The listing (from the top)
SMILES	Sa helicase inh	MgrA DNA FP
CN(C)C=Nc1ccc(S(=O)(=O)c2ccc(N=CN(C)C)cc2)cc1	-14	·
CC(C)(C)NS(=O)(=O)c1ccc(NC(=O)c2ccc(Br)o2)cc1	7	-0.7
CN=c1scc(-c2ccc3c(c2)NC(=O)CO3)n1C	2	·
CN(Cc1nc2ccccc2n1C)C(=O)c1cccs1	6	0.1
CC(=O)Oc1ccc(N2C(=O)C3C4C=CC(O4)C3C2=O)cc1 (stereo not drawn)	-3	·
CN(C)c1nc2n(c(=O)n1)CCN2C(=O)Nc1ccccc1	27	·
c1ccc2c(c1)CCCC2NC1=NCCC1 (stereo not drawn)	-20	·
Nn1cnc2ccccc21	11	·
CCCCN(C)C(=O)c1cc(-c2ccccc2)n[nH]1	1	-0.9
O=C(OC1CCCC1=O)c1ccc(N2CCCC2=O)cc1 (stereo not drawn)	4	·
COC(=O)COc1ccc2c(=O)c(Oc3ccc(OC)cc3)coc2c1	13	-0.7
COc1ccccc1-c1ccc(=O)n(CC#N)n1	-5	·
CC(=O)N(C1=C(O)c2ccccc2C(=O)C1=O)C1CCCCC1	20	1.4
Cc1nc(NCCc2ccccc2)c2c3c(sc2n1)CCCC3	4	-2.1
O=C(CN1C(=O)CCC1=O)Nc1ccc(Br)cc1	-15	·
COCCn1c(=NC(=O)CN2C(=O)c3ccccc3C2=O)sc2ccccc21	19	·
Nc1c(C(=O)NCc2ccc3c(c2)OCO3)c2nc3ccccc3nc2n1C1CCCCC1	-8	·
CCNc1nc(NCC)nc(OCCNS(=O)(=O)c2ccccc2)n1	9	·
COc1ccccc1NC(=O)C1C2c3ccccc3C(c3ccccc32)C1C (stereo not drawn)	11	·
N#Cc1ccccc1OCC(=O)OCC(=O)NC1CCCCCC1	14	·
CCN(CC)Cc1c(O)ccc2c(-c3ccccc3)cc(=O)oc12	15	·
Cc1nn(C)c2nc(C(F)(F)F)cc(C(F)(F)F)c12	-17	1.1
Cc1ccc(NC(=S)C(C#N)C(N)=O)cc1Cl (stereo not drawn)	·	-0.2
Cc1noc(C)c1NC(=O)NCc1cc(F)cc2c1OCOC2	21	·
Cc1cnc(C(=O)N(CC(=O)Nc2cccc(C)c2C)CC2CCCO2)cn1 (stereo not drawn)	-6	·
CC1=NN(c2ccc(C)cc2)C(=O)C1=C1SCCCS1	·	0.2
O=C(Oc1ccc(C2Oc3ccccc3C3CC(c4ccc(Br)cc4)=NN32)cc1)c1ccccc1 (stereo not drawn)	·	-0.5
O=C(Nc1ccccc1)C(O)C(O)C(O)CO (stereo not drawn)	·	-1.5
COc1ccc(NC(=O)c2cc3ccccc3o2)cn1	-15	3.1
CC1C(C#N)=C(SCC#N)NC2=C1C(=O)CC(C)(C)C2 (stereo not drawn)	·	-4.7

Looked up by structure from the entries so far:
SMILES	Sa helicase inh	MgrA DNA FP
Cc1nn(C)c2nc(C(F)(F)F)cc(C(F)(F)F)c12	-17	1.1
O=C(Nc1ccccc1)C(O)C(O)C(O)CO (stereo not drawn)	·	-1.5

New compounds follow.
SMILES	Sa helicase inh	MgrA DNA FP
CSc1nc(C)cc(Oc2ccc(=O)n(-c3ccccc3)n2)n1	2	1.8
Nc1nnc(CS(=O)(=O)c2ccc(Cl)cc2)o1	15	·
Oc1ccc(-c2nc3c4ccccc4ncn3n2)cc1	4	·
Cc1cc(O)c(/C=N/c2ccccn2)c(=O)o1	-9&-26	·
O=C(Nc1nc2c(s1)CCCC2)C1=COCCO1	2	·
CC(=O)N[C@@H](CSC/C=C(\C)CC/C=C(\C)CC/C=C(\C)CCC=C(C)C)C(=O)O	·	-1.7
COC(=O)c1ccc(N2CCCC2=O)cc1O	3	·
CC(=O)Nc1ccc(/C(C)=N/NC2=NCCN2)cc1Br	-6	-1.1
COCC(C)N1C(=O)Cc2c1nc(N)c1c(N)nc(N3CCN(c4ccccc4F)CC3)c(C#N)c21 (stereo not drawn)	-3	·
COc1ccc(C2CC(=O)C3=C(C2)Nc2ccccc2NC3c2ccc(OC)c(Br)c2)cc1 (stereo not drawn)	·	-0.9
CC1CN(C(=O)Cn2c(C(F)(F)F)nc3ccccc32)CC(C)O1 (stereo not drawn)	·	-2.0
[O-][n+]1onc(-c2ccccc2)c1-c1ccccc1	16	-0.3
Cc1ccc(S(=O)(=O)N2CCN(Cn3nc(Nc4ccccc4F)sc3=S)CC2)cc1	10	·
CC1CCC2C(C)(CO)C(O)CCC2(C)C12CCC(C)(CO)O2 (stereo not drawn)	-13	0.0
O=c1ccc(-c2ccc(S(=O)(=O)NC3CCCCC3)s2)n[nH]1	14	-0.9
Cn1c(COc2ccc(Cl)cc2)nnc1SCC(=O)Nc1c(C#N)oc2ccccc12	-4	·
CC12CCC(=O)N1C(C(=O)OCC(=O)c1ccc(F)c(F)c1)CS2 (stereo not drawn)	-6	·
COc1cccc(N2C(=O)/C(=C/c3ccco3)SC2=S)c1	17	·
O=C1Nc2ccccc2C(=O)C1(O)O	4	·
Cc1cc(C)cc(C(=O)/C=C2\NC(=O)CS2)c1	-11	·
c1ccc(CCN2CCN(c3ccccc3)CC2)cc1	6	-2.7
CCc1ccccc1NNC(N)=S	23	·
Cc1[nH]c2ccccc2c1C(Nc1cccc(C(F)(F)F)c1)c1ccccn1 (stereo not drawn)	-10	2.5
Cc1cc(C)c2c(n1)nn1c(C)c(CCC(=O)NC3CCCC3)c(C)nc21	0	2.9
COc1ccc(-c2n[nH]c(=S)n2C)cc1	7	·
CCNC(=O)CSCc1ccc(C)cc1	6	0.3
O=C(CC1NCCNC1=O)NCCc1ccccc1 (stereo not drawn)	18	-0.8
CN1C(=O)CSC1=NC12CC3CC(CC(C3)C1)C2	17	-0.1
CCCOc1ccc(C(=O)NCC(C)(C)N2CCOCC2)cc1	-9	·
O=C1NC(=Nc2ccccc2Cl)S/C1=C/c1cc2c(cc1Br)OCO2	·	-1.1
O=C(/C=C/c1ccco1)OCc1ccc(Br)cc1	-11	·
O=C(CO/N=C/c1cccc(Oc2ccccc2)c1)N1CCN(C(=O)c2ccco2)CC1	-9	·
CCOC(=O)N1CCC(N2Cc3cccc(C(=O)Nc4ccc(OC)c(OC)c4)c3C2=O)CC1	3	·
COc1ccc2cc(CCC(C)=O)ccc2c1	·	0.2&-2.2
C=CCOc1cccc(-c2nc(-c3ccccn3)no2)c1	-8	0.5
O=C(Cn1ncc(Cl)c(Cl)c1=O)N(C1=CCCCC1)C1CC1	1	·
COc1cc(OC)cc(C(=O)OC(C)C(=O)NC2CCCCC2)c1 (stereo not drawn)	-5	·
Cc1csc2nc(CN(C)Cc3ccccc3)cc(=O)n12	19	·
CSc1nnc2c(n1)OC(C)Nc1ccc(Br)cc1-2 (stereo not drawn)	3	-1.2
Cc1ccc(S(=O)(=O)c2cc3ccccc3oc2=O)cc1C	-15	·
C=CCn1c(-c2ccc(OC)cc2)csc1=Nc1ccc(Br)cc1	0	-1.6
O=C(/C=C/c1ccccc1)Nc1ccc(-c2nnc(-c3ccco3)o2)cc1	5	2.3
COc1ccc(C(=O)NC(CC(C)C)C(=O)O)cc1 (stereo not drawn)	12	-0.6
O=C(NCC1CCN(S(=O)(=O)c2ccccc2)CC1)Nc1ccccc1	-29	·
Cc1nc(N)[nH]c(=O)c1CCC(=O)OCC(C)C	12	·
CC(C)(C)C(=O)NCCc1c[nH]c2ccccc12	-11	1.9
O=C(NCC(=O)N1CCN(c2ccccc2)CC1)c1cccs1	12	-0.6
COc1ccc(OC)c(-n2c(=S)[nH]c3cc(C(=O)Nc4ccc(C)c(Cl)c4)ccc3c2=O)c1	5	-0.2
CCCN1C(=O)C2ON(c3ccccc3)C(c3ccncc3)C2C1=O (stereo not drawn)	6	·
Cc1c(C(=O)O)sc2nc(-c3ccc(Cl)cc3)nn12	·	1.4

New compounds follow
SMILES	Sa helicase inh	MgrA DNA FP
N[C@@H]1CONC1=O	·	0.1&3.9
O=S1(=O)CC(Sc2ccc(Cl)cc2)c2ccccc21 (stereo not drawn)	·	-1.5
CCCN1Cc2cccc(C(N)=O)c2C1=O	4	-1.3
O=C(CN1CCC(N2CCCCC2)CC1)c1ccc2c(c1)OCCO2	4	-2.8
O=C1C=C(Nc2ccccc2)C(=O)N1Cc1ccccc1	-2	·
CSc1nc2sc3c(c2c(=O)[nH]1)CCc1ccccc1-3	22	·
Cc1ccc(S(=O)(=O)N2CCN(C(=O)CSc3nccn3C)CC2)cc1	18	·
COC(=O)c1cc2ccsc2n1CC(=O)NCC1CCCO1 (stereo not drawn)	-3	·
C=CCOc1nc(N2CCCCC2)nc(N2CCCCC2)n1	20	·
CN(C(=O)c1cc2c(s1)-c1ccccc1OC2)C1CCCCC1	12	·

Profiles, quoted from the list. Order of values: Sa helicase inh, MgrA DNA FP
`CCCN1Cc2cccc(C(N)=O)c2C1=O` across the screens: 4, -1.3
`C=CCOc1nc(N2CCCCC2)nc(N2CCCCC2)n1` across the screens: 20, ·

More structures follow:
SMILES	Sa helicase inh	MgrA DNA FP
O=C(COC(=O)C1(c2ccc(F)cc2)CCCC1)N1CCOCC1	-9	-1.9
CCCCn1c(CNC(=O)c2cccs2)nc2ccccc21	-8	·
CC(C)C(=O)N1C2=C(C(=O)c3ccccc32)C(c2ccc(Cl)cc2)c2c1n(C)c(=O)n(C)c2=O (stereo not drawn)	9	1.1
CC[C@H]1[C@@H]2C=C[C@@H]3[C@H]4C/C=C\C(=O)NCCC[C@@H]5NC(=O)C(=C5O)C(=O)CC[C@@H]4C[C@@H]3[C@H]2C[C@H]1C	·	0.2
Cc1ccc(N2C(=O)NC(=O)/C(=C/c3cc(Br)c(O)cc3O)C2=O)cc1	·	14
CN1CCN(CCNC(=O)Cn2cccc2C(=O)c2ccccc2)CC1	7	3.9
CC(=O)Nc1ccc(CN2CCN(C)CC2)cc1	14	-0.9
c1ccc2c(c1)CCN(Cc1nc3ccccc3[nH]1)C2	-14	·
COc1ccccc1N1C(=O)C2CC=CC(C)C2C1=O (stereo not drawn)	0	·
COC(=O)CN1c2ccccc2S(=O)(=O)c2ccccc21	-23	·
COc1ccc([S+]2CCCCC2)cc1	8	-0.5
Cc1ccc(C)n1-c1ccccc1CN(C)C1CCCCC1	-12	·
NC(=O)CSc1ncc(CO)n1Cc1ccccc1	14	·
COc1ccc(C2Nc3ccccc3C(=O)N2c2ccccc2)cc1COc1cc(C)c(Cl)cc1C(C)C (stereo not drawn)	·	-1.2
O=C(O)C(=O)/C=C(\O)c1ccc(Cl)cc1	10	3.3
Cc1cc(C)cc(N=Cc2ccc(C#N)cc2)c1	-2	-2.5
Cc1c(C)c(C)c(C(=O)CCc2cccc(NC(=O)C3CCC3)c2)c(C)c1C	·	5.0
CC1=C(NC(=S)NC(=O)c2ccccc2)NCc2ccccc21	-1	3.9
Cc1ccc(NC(=O)Cn2c(=O)n(-c3cc(C)cc(C)c3)c(=O)c3sccc32)cc1	-8	·
Clc1cccc2c(N3CCC(n4cccc4)CC3)ccnc12	·	-2.1

Continued (3 carried over from the part before).
SMILES	Sa helicase inh	MgrA DNA FP
CC1=C(NC(=S)NC(=O)c2ccccc2)NCc2ccccc21	-1	3.9
Cc1ccc(NC(=O)Cn2c(=O)n(-c3cc(C)cc(C)c3)c(=O)c3sccc32)cc1	-8	·
Clc1cccc2c(N3CCC(n4cccc4)CC3)ccnc12	·	-2.1
OC(c1ccccc1)c1cccs1 (stereo not drawn)	·	1.0
c1ccc2oc(SCc3cn4ccccc4n3)nc2c1	4	·
CC(C)(C)c1ccc(C(=O)NCCSC(=O)c2ccc(C(C)(C)C)cc2)cc1	·	-2.2
Cc1ccc2c(CN3CCN(CC#N)CC3)cc(=O)oc2c1	-29	·
O=C(Nc1cccnc1)c1ccc(COc2ccccc2Br)cc1	2	-2.1
O=C(Nc1ccccc1)NC12CC3CC(CC(C3)C1)C2	9	·
Cc1ccc(Cn2ccc(NC(=O)c3noc4c3CCc3ccccc3-4)n2)cc1	3	-0.4
O=C(CBr)Nc1cccc(C(F)(F)F)c1	16	-2.4
O=C(N/C=C/c1ccsc1)Nc1ccccc1C(F)(F)F	·	2.8
CCOC(=O)c1c(NC(=O)c2ccc(OC)cc2)sc(C(=O)Nc2ccccc2C(F)(F)F)c1C	·	-0.7
Nc1nc(SCc2cccc(C(F)(F)F)c2)ncc1C(=O)O	·	0.7
CCOC(=O)c1c(C=O)oc2c(C)cc(OC(=O)c3cc(C)cc(C)c3)c(Br)c12	·	0.0
CCOc1ccccc1N(C)C(=O)c1nn(-c2ccc(OC)cc2OC)c(=O)c2ccccc12	5	·
NC(=O)c1c(O)sc2c1CCCC2	-53	·
Nc1ccccc1NC1CCN(Cc2ccccc2)CC1	·	4.4
CCOc1ccc2cc(C3CC(c4ccco4)=NN3S(=O)(=O)c3ccccc3)c(Cl)nc2c1 (stereo not drawn)	-9	1.4
Cc1ccc2onc(CC(=O)NCCN3CCN(C)CC3)c2c1	-3	0.3
CCCc1c(C(=O)NCCc2ccccn2)cnn1-c1ccc(Cl)cc1	·	-0.9
CCOC(=O)N1CCC(NC(=O)C2c3ccccc3C(=O)N(C)C2c2cn(C)c3ccccc23)CC1 (stereo not drawn)	27	·
N#Cc1cc(C(=O)O)c(=O)[nH]c1SCc1ccccc1Cl	13	·
O=C(O)c1ccc(CN2CCN(Cc3ccc(C(=O)O)o3)CC2)o1	5	·
O=C(O)/C=C/C(=O)NCc1ccc(F)cc1	·	-0.2
COc1ccccc1NC(=O)NNc1c(C)cc(C)cc1C	-12	·
NS(=O)(=O)c1ccc(NC(=O)CN2CCCC2)cc1	-14	·

Compound activity deposited in PubChem by ICCB-Longwood Screening Facility, Harvard Medical School.

Some of the compounds tested; count on the stated rates, not on these rows.
